Mtb hypoxia rep – Mtb hypoxia fluorescent reporter inhibition. 300,000 tested, 0.1% active. AID 1159583. M. tuberculosis hypoxia-regulated fluorescent reporter, fluorescence. fluorescence inhibition, % (no concentration beside the values);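 active means 35 to 45% if threefold the growth effect, above 45% if 1.5-fold the growth effect; inactive means the rest, general growth blockers included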;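 further: wells of about 50 µL received 100 nL stock; 0% = vehicle wells and 100% = reference inhibitor wells; whole bacteria with a GFP reporter of the hypoxia response; strong numbers were not always called active; many hits fall short of the cut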
Sa RN4220 lethal – kills Staphylococcus aureus RN4220; 330,000 tested, 0.33% active; inhibition, % (no concentration beside the values); AID 1259311; S. aureus RN4220 growth, OD600, 16 h;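 active means z-score of -3 or lower and OD600 up to 0.18 on both plates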;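 further: plate controls were untreated cells for no effect and reference antibiotic for full effect; stock transfer was 100 nL into about 80 µL; one replicate is shown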
ugtP null kill – compounds lethal to S. aureus RN4220 ugtP deletion mutant. growth inhibition, % (test concentration not listed). 330,000 tested, 0.54% active. OD600 growth, 16 h; some inactives read as strong as hits;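 active means z-score under -3 and OD600 up to 0.15 on both plates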;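 further: plate controls were untreated wells for no effect and antibiotic for full effect; wells of about 80 µL received 100 nL stock; the first replicate is given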
PrP UTR inh – inhibition of PrP 5' UTR reporter expression; cell-based PrP 5' UTR mRNA reporter, plate reader; inhibition, % (concentration not given with the values); 340,000 tested, 0.35% active; AID 488862;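 active means every replicate at 50% or more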;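 further: 0 = median of the neutral control wells; tested in H4 reporter cells; numbers are from one replicate; inactives centre near -14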
BJeLR lethal – kills HRASV12-expressing BJeLR cells | BJeLR (HRASV12) viability, CellTiter-Glo ATP luminescence, 48 h; reference of the scale not given here | inhibition, % (no concentration beside the values) | 300,000 tested, 0.17% active | AID 1554;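 active means replicate mean above 50%; inconclusive means above 50% but judged a plate artefact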;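 further: 50 nL library stock added to about 25 µL; numbers are from one replicate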
Bead autofluor – compound fluorescence in toxin protease inhibitor counterscreen | compound autofluorescence counterscreen, microsphere flow cytometry; hits give high values | fluorescence intensity (concentration not given with the values) | 360,000 tested, 3.1% active;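 active means at least 3 SD above the mean of all compounds, about 16000 in these data; inconclusive means too few beads counted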;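 further: 100 nL of 1 mM stock went into each well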
Mtb hypoxia rep growth – further read-out of Mtb hypoxia rep, marked with its call; growth inhibition, %; measured here: M. tuberculosis growth (absorbance);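 0% = vehicle and 100% = reference antibiotic; read after six days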
Numbers without * were called inactive; ? = inconclusive; · = no result given; & = joins results of further samples.

#	Molecule	Mtb hypoxia rep	Mtb hypoxia rep growth	Sa RN4220 lethal	ugtP null kill	PrP UTR inh	BJeLR lethal	Bead autofluor
1	O=[N+]([O-])c1ccc(/C=N/Nc2ccccn2)cc1	·	·	·	·	-22	-5	3069
2	Cc1onc(-c2c(Cl)cccc2Cl)c1C(=O)NCCc1ccncc1	3	3	4.1	-5	-7	6	5747
3	CC(C)CCNC(=O)CN(CCN1CCOCC1)C(=O)Cn1nnc(-c2ccc(F)cc2)n1	2	11	-1.5	-4	-4	5	22983*
4	COc1ccc(Nc2nc(N)nc(CSCCO)n2)cc1	·	·	2.2	6	-8	2	4461
5	CCC(=O)NC(=S)Nc1ccc(S(=O)(=O)N2CCN(C)CC2)cc1	1	4	3.1	7	-8	-9	2045
6	COc1ccccc1N1CCN(C(=O)CSc2nnc(NC(=O)C3CCC3)s2)CC1	2	9	2.1	2	-8	3	?
7	NC(=O)CC(NC(=O)Cc1cccc2ccccc12)c1ccc(NCc2ccc(F)c(F)c2)c([N+](=O)[O-])c1 (stereo not given)	17	12	6.4	5	-6	-1	3887
8	Cn1cccc1C=NNC(=O)CNc1cccc2ccccc12	4	6	1.6	-3	·	·	·
9	CCSc1nnc(NC(=O)CN2C(=O)N(C)C3(CCCCC3)C2=O)s1	13	1	2.3	1	-10	·	?
10	COC(=O)[C@@]12CCCN1[C@H](c1ccc(-c3ccc(F)cc3)cc1)[C@H]1C(=O)N(C)C(=O)[C@H]12	·	·	·	·	4	-7	4015
11	Cc1nn(CC(=O)NCCc2ccccc2)c(C)c1[N+](=O)[O-]	8	0	0.7	1	-32	-6	10518
12	CCC(CO)Oc1cc(NC(=O)c2ccc(N)cc2)c2ncn(C(C)C)c2c1 (stereo not given)	-5	5	5.5	12	5	·	3960
13	Cc1cc(C)c(NC(=O)CNC(=O)c2ccc(-n3cncn3)c([N+](=O)[O-])c2)c(C)c1	-8	7	-2.7	2	-11	-6	·
14	O=C(Nc1ccc(F)cc1)Nc1ccccc1NS(=O)(=O)c1cccs1	3	-1	0.4	-17	-20	-4	2583
15	COCCn1c(-c2ccc(OC(F)(F)C(F)C(F)(F)F)cc2)nc2c1c(=O)[nH]c(=O)n2CC(C)C (stereo not given)	-2	6	-9.9	-7	7	·	?
16	COc1ccc(NC(=O)c2ccc(S(=O)(=O)N(C)C)cc2)cc1OC	·	·	7.1	-3	3	0	3659
17	CCCNC(=O)COC(=O)c1ccc(Cl)c(S(=O)(=O)N2CCCC2)c1	·	·	0.8	11	-9	2	2208
18	Cc1cc(C(=O)OCC(=O)c2ccc3c(c2)OCCO3)c(C)o1	12	3	8.4	23	-60	33	2956
19	COc1ccc2c(CC(=O)OCC(=O)Nc3sc4c(c3C#N)CCC(C)C4)coc2c1 (stereo not given)	3	8	3.6	-6	-22	0	2459
20	CCOC(=O)C1(Cc2ccccc2C)CCCN(C(=O)c2ccc(COC)o2)C1 (stereo not given)	0	12	0.3	-8	-34	0	5224

3 entries from above, screen by screen:
#10 COC(=O)[C@@]12CCCN1[C@H](c1ccc(-c3ccc(F)cc3)cc1)[C@H]1C(=O)N(C)C(=O)[C@H]12
#6 COc1ccccc1N1CCN(C(=O)CSc2nnc(NC(=O)C3CCC3)s2)CC1
#4 COc1ccc(Nc2nc(N)nc(CSCCO)n2)cc1

Compound | 10 | 6 | 4
Mtb hypoxia rep | · | 2 | ·
Mtb hypoxia rep growth | · | 9 | ·
Sa RN4220 lethal | · | 2.1 | 2.2
ugtP null kill | · | 2 | 6
PrP UTR inh | 4 | -8 | -8
BJeLR lethal | -7 | 3 | 2
Bead autofluor | 4015 | ? | 4461

(continued)
#	Molecule	Mtb hypoxia rep	Mtb hypoxia rep growth	Sa RN4220 lethal	ugtP null kill	PrP UTR inh	BJeLR lethal	Bead autofluor
21	CCSc1nnc2ccc(-c3ccc(OC)c(OC)c3)nn12	·	·	·	·	1	-7	5600
22	Cc1ccc(S(=O)(=O)NCCC(=O)Nc2nnc(C3CC3)s2)cc1C	·	·	1.6	7	-8	2	3695
23	CC(OC(=O)/C=C/c1ccco1)C(=O)Nc1cccc([N+](=O)[O-])c1 (stereo not given)	11	6	3.7	-3	-13	7	2282
24	Cc1ccc(SCC(=O)Nc2ccc3c(c2)C(=O)N(C)C3=O)cc1	9	-3	2.5	4	-3	-10	5526
25	Cc1ccccc1NC(=S)NCCO	12	3	4.1	10	-31	-4	2407
26	COc1ccccc1CN1C(=O)C2CC=CCC2C1=O (stereo not given)	12	4	8.6	12	-2	-4	7710
27	NC(=O)CC(NC(=O)Cc1cccc2ccccc12)c1ccc(N2CCc3ccccc3C2)c([N+](=O)[O-])c1 (stereo not given)	·	·	·	·	-14	-16	3773
28	CC(C1CC1)N(Cc1ccccc1)C(=S)Nc1ccccc1 (stereo not given)	0	-1	9.1	22	-18	6	4497
29	O=C(Nc1csnn1)c1csnn1	·	·	·	·	-9	3	3725
30	C=C(C)CN1CCN(c2c(CCC#N)c(C)c(C#N)c3nc4ccccc4n23)CC1	·	·	1.8	0	-9	1	2869
31	NS(=O)(=O)c1ccc(CCNC(=O)c2ccc(C#CC3(O)CCCCC3)cc2)cc1	·	·	·	·	-29	-2	3158
32	O=C(CC1Sc2ccccc2NC1=O)NCc1cccc(Cl)c1 (stereo not given)	13	8	5.6	9	-27	-1	4001
33	COC(=O)COc1ccc(C(C2C(=O)CC(C)(C)CC2=O)C2C(=O)CC(C)(C)CC2=O)cc1	-12	9	0.5	1	-28	-1	3654
34	CN(C)c1ccc(N2C(=O)CC(Nc3ccc(N4CCOCC4)cc3)C2=O)cc1 (stereo not given)	·	·	-0.9	-2	-28	·	3335
35	COc1cc2[nH]c3c(Cl)ncnc3c2cc1OC	-11	1	1.3	-1	-4	0	2023
36	CCOc1ccc(NC(=O)Cn2c(=O)n(CC3CCCO3)c(=O)c3ccccc32)cc1 (stereo not given)	-12	-2	0.2	-9	-6	4	4803
37	Cc1ccc(S(=O)(=O)N2CCOCC2)cc1NC(=O)CNC1CCCC1	13	-5	6.0	6	-16	-1	5854
38	CCOc1ccc(CNC(=O)Cn2ccc3cc(S(=O)(=O)N4CCCC4)ccc32)cc1	9	4	1.6	5	-24	-7	6283
39	CCS(=O)(=O)N1CCN=C1SCc1cccc(F)c1	-2	-6	4.5	-1	-10	5	4979
40	CC1CN(C(C)CO)C(=O)c2cccc(NC(=O)Cc3ccccc3)c2OC1CN(C)S(=O)(=O)c1cccs1 (stereo not given)	18	13	7.5	7	·	·	·
41	CCN(CC)c1ccc(/C=N/NC(=O)CNC(=O)c2cccs2)cc1	·	·	·	·	-5	-2	5457
42	CC[N+](C)(C)CCN(Cc1ccc(Cl)cc1)c1ccccn1	13	6	2.3	4	-15	5	6903
43	Cc1ccc(S(=O)(=O)NC(=O)COc2ccccc2C)cc1	·	·	2.3	1	-20	·	3703
44	Cc1ccc(N=C2C(=O)Nc3ccccc32)cc1C	5	2	3.3	8	-9	1	3257
45	Cc1cccc(NC(NC(=O)c2ccccn2)C(Cl)(Cl)Cl)c1 (stereo not given)	9	11	1.0	3	-1	3	10383
46	COc1ccc(/C=N/NC(=O)c2nc(-c3ccccc3)cc(-c3ccccc3)n2)cc1	·	·	·	·	-7	-3	2513
47	COc1ccc(C(=O)N/C(=C\c2ccc3c(c2)OCO3)C(=O)N2CCOCC2)cc1	-7	-5	0.8	7	77*	1	3822
48	CCOC(=O)c1c(C(=O)OCC)c(C)n(Cc2cc(OC)c(OC)c(OC)c2)c1C	5	-1	2.2	0	14	3	1939
49	Cc1ccc(C(=O)N2CCN(Cc3ccc4c(c3)OCO4)CC2)cc1C	·	·	-3.5	11	-15	-4	3515
50	Cc1cc(-c2ccccc2)cc(C)n1	6	2	5.9	8	-11	·	2998
51	COc1ccccc1NCc1nnc(SCC(=O)N/N=C/c2ccco2)n1-c1ccc(Cl)cc1Cl	·	·	·	·	-13	3	4542
52	COc1cccc(C(=O)C[n+]2ccccc2C=NO)c1	-7	5	0.6	4	·	·	·
53	O=C(N/N=C1/CCS(=O)(=O)c2ccc(F)cc21)c1cccnc1	·	·	·	·	-31	-6	3841
54	Cc1ccccc1OCC(=O)NCCCNC(=O)c1ccccn1	-9	7	2.1	9	-1	0	5416
55	O=C(C(=O)N1CCN(c2ccc(F)cc2)CC1)N1CCCCC1	-2	1	0.7	1	-22	-2	3387
56	Cc1cc2ncn(/N=C/c3ccc([N+](=O)[O-])o3)c2cc1C	·	·	·	·	-22	-5	8067
57	Cc1cc(C)nc(NS(=O)(=O)c2ccc(N=NN(C)C)cc2)n1	-3	-13	3.7	3	3	-3	3614
58	O=C(O)CC1S/C(=N/N=C/c2ccccn2)NC1=O (stereo not given)	·	·	·	·	-32	7	3958
59	CC(=O)OCC1=C(C(=O)O)N2C(=O)C(NC(=O)C(C)Cn3cc(Cl)cn3)C2SC1 (stereo not given)	17	26	100*	100*	-9	1	3351
60	CCC(C)CN1C(=O)NC(c2ccccc2)C(C(C)=O)=C1C (stereo not given)	10	4	2.2	-9	·	·	·
61	COc1ccc2cc(/C(C)=N/NC(=O)C3CC3)ccc2c1	·	·	·	·	-90	8	4232
62	CCCCNC(=S)NN=CC1=CCC2CC1C2(C)C (stereo not given)	0	-4	-2.2	25	·	·	·
63	Cc1onc(-c2ccccc2Cl)c1C(=O)Nc1nnc(-c2ccc(Br)cc2)s1	-6	6	22	18	-11	3	5751
64	COc1ccc(Cn2c(O)c(/C=N/NC(=O)c3cccnc3)c3ccccc3c2=O)cc1	2	6	31	27	-13	16	4235
65	CCOCCCn1c(=NC(=O)c2cccnc2)c(C(=O)OCC)cc2c(=O)n3ccccc3nc21	7	6	6.0	-2	-6&-9	-3	3854&2869
66	CC(=O)NCCc1c[nH]c2ccc(O)cc12	3	6	5.4	0	-59	3	6019
67	CCOc1cccc(C=Nc2cc(C)cc(C)c2O)c1O	2	4	4.5	7	-18	-15	22996*
68	Cc1cc(C)n(CCOC(=O)C2C(C=C(Cl)Cl)C2(C)C)n1 (stereo not given)	·	·	1.9	2	-10	-9	2147
69	COC(=O)c1sccc1NC(=O)c1cnc2cc(C)nn2c1C	4	4	1.3	5	-3	18	3086
70	C=CCN1C(=O)C(CC(=O)Nc2ccc(C)cc2)SC1=Nc1c(C)n(C)n(-c2ccccc2)c1=O (stereo not given)	-2	1	2.0	-4	-5	-13	12007
71	COc1ccc(-c2csc(N3CCN(c4cc(C)nc5ccccc45)CC3)n2)cc1OC	-7	7	-2.2	2	-12	4	5093
72	COC(=O)[C@]1(C)NC(c2ccc(-c3ccc(OC)cc3)cc2)C2C(=O)N(C)C(=O)C21 (stereo not given in full)	-1	-6	4.9	2	·	·	·
73	COc1ccc(OC)c(CN2CCSCC2)c1	12	9	1.7	12	-41	7	2971
74	CCc1nnc(NS(=O)(=O)c2ccc(NC(=O)c3cccc(Br)c3)cc2)s1	-4	11	-3.3	8	-18	-2	5255
75	Cc1ccc(SC[C@H](Cc2ccccc2)N2CCN(C)CCC2=O)cc1	·	·	·	·	-15	-14	4151
76	CC(=O)Nc1ccc(NC(=S)NC(=O)/C=C/c2ccccc2)cc1	-19	0	0.5	19	-2	1	1944
77	N#Cc1c(NC(=O)CSc2nc3ccccc3c(=O)n2Cc2ccco2)sc2c1CCCC2	-1	7	4.2	-11	-8	0	3910
78	Cc1cc(C)nc(SCc2csc(-c3ccccc3)n2)n1	3	19	3.8	6	-106	-1	3178
79	COc1cc(OC)cc(C(=O)OCC(=O)NC(c2ccccc2)c2ccccc2)c1	6	3	6.7	-1	-25	·	3381
80	COC(=O)c1cccc(NC(=O)CSc2nc(O)c(-c3ccccc3)c(=O)[nH]2)c1	-11	11	-0.9	-15	10	·	3240

Going on with the list.
#	Molecule	Mtb hypoxia rep	Mtb hypoxia rep growth	Sa RN4220 lethal	ugtP null kill	PrP UTR inh	BJeLR lethal	Bead autofluor
81	COc1ccc(OC)c(NC(=O)COC(=O)Cc2ccc(Br)cc2)c1	2	6	3.3	5	-23	4	4067
82	Cc1cc([N+](=O)[O-])ccc1-c1ccc(C=NNC(=O)c2ccc(Br)o2)o1	-3	4	10	21	·	·	·
83	COc1ccc(OC(C)c2ccc(C#N)c(=O)[nH]2)cc1 (stereo not given)	2	1	2.9	0	-6	-4	2498
84	O=C(COc1cccnc1[N+](=O)[O-])Nc1ccc(F)cc1	8	7	-1.0	6	-34	·	3030
85	CC(C)(C)C(=O)Nc1ccc(C(=O)Nc2cccc(Oc3ccc(C(=O)O)c(C(=O)O)c3)c2)cc1	9	3	4.1	2	-36	-3	3552
